# High-throughput results: PubChem BioAssay, Southern Research Institute
# V. cholerae motility: Vibrio cholerae motility inhibitors, OD read-out (AID 588778); Vibrio cholerae motility, OD read-out; higher % means a stronger effect; test concentration not given here; primary cut-off and reference of the scale not given here; strong numbers were not always called active; inhibition, %, or IC50 in µg/mL where a hit was titrated; 10,000 tested, under 10 active; in the data active = confirmed in a dose series
# V. cholerae motility viability: further read-out of V. cholerae motility, marked with its call; inhibition, %; measured here: bacterial viability at 10 ug/mL;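 higher means fewer living bacteria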
# * = called active by the depositor. This is a subset; the hit share may differ from the screen's.
SMILES,V. cholerae motility,V. cholerae motility viability
COc1ccc(Cl)cc1NC(=S)NNC(=O)c1cc(C)nc2ccccc12,19%,2
CC(CO)(CO)NC(=O)NC1CCCCC1,-7%,4
COc1ccccc1N1CCN(CCOc2ccc(Cl)cc2)CC1,16%,3
Cc1ccc2[nH]c(-c3ccccc3)c(CN(C)C)c(=O)c2c1,10%,26
Oc1cccc2ccc(/C=C/c3cccc(Cl)c3Cl)nc12,11%,-3
CSc1ccccc1NC(=O)c1cc(C)on1,23%,7
O=C(Nc1ccc(F)cc1F)Nn1cnnc1,25%,14
CCOC(=O)c1c(C)nc(C)c(C(=O)OCC)c1-c1cccc(NC(=O)c2ccc(F)cc2)c1,-4%,-2
Cc1ccc(NC(=S)NC(=O)c2cccc(Cl)c2Cl)cc1[N+](=O)[O-],-8%,-2
CCOC(=O)c1ccc(NC(=O)NNC(=O)c2sccc2C)cc1,13%,-4
O=C(Oc1ccc(F)cc1)c1nc(SCc2ccccc2)ncc1Cl,1%,0
Cc1nc2ccc(F)cc2cc1C(=O)O,12%,1
N#C/C(=C\C=C\c1ccco1)c1nc(-c2ccc(Br)cc2)cs1,4%,-11
O=c1c2ccccc2nc2sc3ccccc3n12,28%,11
CCOC(=O)C1CCN(C(=O)COc2ccc(S(=O)(=O)NCc3ccccc3)cc2Cl)CC1,18%,1
Cc1cc(C)c2c(Nc3csc4nc(C)cc(C)c34)csc2n1,4%,17
S=C(Nc1ccc2c(c1)OCO2)N1CCC(Cc2ccccc2)CC1,11%,-2
O=[N+]([O-])c1ccc2nc(CSc3nc4ccccc4o3)[nH]c2c1,44%,6
Cc1cc(NC(=O)CSc2nc3ccccc3c3nc4ccccc4n23)n[nH]1,45%,18
Cc1cc(OCc2nc3ccccc3s2)ccc1[N+](=O)[O-],0%,-6
COc1ccc(N/C=C(\C#N)C(N)=S)cc1OC,-1%,-5

# 3 records picked at random from those above, as already listed:
SMILES,V. cholerae motility,V. cholerae motility viability
O=c1c2ccccc2nc2sc3ccccc3n12,28%,11
CCOC(=O)c1ccc(NC(=O)NNC(=O)c2sccc2C)cc1,13%,-4
COc1ccc(N/C=C(\C#N)C(N)=S)cc1OC,-1%,-5

# Entries of single compounds, looked up by structure. Screens in order: V. cholerae motility, V. cholerae motility viability
# CC(CO)(CO)NC(=O)NC1CCCCC1 in the list: -7%, 4
# COc1ccccc1N1CCN(CCOc2ccc(Cl)cc2)CC1 in the list: 16%, 3
# CCOC(=O)C1CCN(C(=O)COc2ccc(S(=O)(=O)NCc3ccccc3)cc2Cl)CC1 in the list: 18%, 1
# CCOC(=O)c1c(C)nc(C)c(C(=O)OCC)c1-c1cccc(NC(=O)c2ccc(F)cc2)c1 in the list: -4%, -2
# CCOC(=O)c1ccc(NC(=O)NNC(=O)c2sccc2C)cc1 in the list: 13%, -4
